# Screens as filed in PubChem.
# KCNQ2 inh – KCNQ2 potassium channel inhibitors, primary screen, cell-based, CHO-K1, FluxOR thallium flux, B-score (AID 2156); 20 min; active compounds read low; only compounds with negative scores are shown here; some inactives read as strong as hits; B-score at 10 µM; 310,000 compounds, 1.1% hits;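 active = fluorescence ratio B-score at most minus 3 library SDs, with starting brightness B-score within 2 library SDs, cut at about -5.5 in these data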
# Target sequence (O88943 whole entry, looked up): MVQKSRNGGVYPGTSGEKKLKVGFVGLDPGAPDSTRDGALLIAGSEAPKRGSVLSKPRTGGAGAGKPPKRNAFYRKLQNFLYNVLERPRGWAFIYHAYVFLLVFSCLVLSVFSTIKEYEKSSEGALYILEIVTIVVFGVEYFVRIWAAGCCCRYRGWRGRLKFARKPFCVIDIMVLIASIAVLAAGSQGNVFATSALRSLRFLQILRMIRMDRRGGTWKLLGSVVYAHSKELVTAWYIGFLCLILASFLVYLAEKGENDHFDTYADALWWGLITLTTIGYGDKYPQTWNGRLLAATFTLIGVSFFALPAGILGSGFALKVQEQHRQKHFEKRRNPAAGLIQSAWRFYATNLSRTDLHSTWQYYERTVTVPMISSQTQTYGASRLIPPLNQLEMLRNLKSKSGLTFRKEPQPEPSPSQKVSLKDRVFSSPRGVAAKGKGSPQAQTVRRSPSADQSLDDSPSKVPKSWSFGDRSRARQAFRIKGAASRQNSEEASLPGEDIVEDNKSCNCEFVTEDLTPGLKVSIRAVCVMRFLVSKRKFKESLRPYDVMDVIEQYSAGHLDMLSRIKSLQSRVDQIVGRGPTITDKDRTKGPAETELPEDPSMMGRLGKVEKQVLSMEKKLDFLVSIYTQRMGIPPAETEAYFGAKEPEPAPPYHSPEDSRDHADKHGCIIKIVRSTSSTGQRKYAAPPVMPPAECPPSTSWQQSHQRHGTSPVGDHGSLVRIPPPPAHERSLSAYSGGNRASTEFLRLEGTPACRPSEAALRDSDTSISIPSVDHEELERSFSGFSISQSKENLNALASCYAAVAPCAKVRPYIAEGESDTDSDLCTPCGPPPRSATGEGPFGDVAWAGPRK
# KCNQ2 inh baseline – also measured in KCNQ2 inh; calls as there; B-score; measured here: initial fluorescence intensity artifact check;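 brightness before thallium and not channel activity; 0 = typical well and far values either way flag optical interference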
# Numbers without * were called inactive; i = inactive. The list is partial; count on the stated rates, not on these rows.
entry	smiles	KCNQ2 inh	KCNQ2 inh baseline
1	COc1ccc(CCNC(=O)c2nc(-c3cccs3)no2)cc1OC	i	0.11
2	CC1CC(C)CN(CC(=O)Nc2ccc3c(c2)OCCO3)C1 (stereo not given)	i	0.13
3	COc1ccc(-c2noc(COc3ccc4c(c3)OCO4)n2)cc1	i	-0.28
4	COc1cccc(CNC(=O)Cc2csc(Nc3nc(=S)[nH]c4ccccc34)n2)c1	i	-1.5
5	CC(C)(C)c1cccc(/C=N/O)c1O	i	2.65
6	Cc1cc(/C=N/NC(N)=S)c(C)n1-c1ccc(Cl)c(Cl)c1	i	-0.21
7	CC1(C)CC(=O)C2=C(C1)NC(Nc1nc3ccccc3o1)=NC2c1ccccn1 (stereo not given)	i	-0.03
8	COc1ccc(NC(=O)CSc2nc3ccccc3cc2Cc2ccccc2)cc1	i	0.92
9	Cc1noc(C)c1C(=O)N1CCCC(C(=O)c2cccc(C(F)(F)F)c2)C1 (stereo not given)	i	0.94
10	CCn1ccnc1CN(C)Cc1cn(-c2ccccc2)nc1-c1ccc(OC)cc1F	i	1.86
11	COc1cc(C2Nc3c(F)cccc3C3C=CCC32)cc(Br)c1OC (stereo not given)	i	1.96
12	COCCN(CCOC)c1nc(S(=O)(=O)c2ccc(C)cc2)c(Cl)s1	i	0.32
13	CC1CN(C(=O)c2cc(F)c(F)cc2Cl)CC(C)O1 (stereo not given)	i	-1.42
14	COc1ccc(Cc2c[nH]c(=O)[nH]c2=O)cc1	i	2.49
15	CCCCN(CC)Cc1ccc(CNC(=S)Nc2ccccc2F)o1	i	2.27
16	COCCOC(=O)C(C#N)c1nc2ccccc2nc1N1CCN(Cc2ccccc2)CC1 (stereo not given)	i	1.75
17	Cc1cc2c(cn1)C(CCC#N)(CCC#N)c1ccccc1-2	i	-0.85
18	C=CCSc1nc2c(sc3nc(C)cc(C)c32)c(=O)[nH]1	i	-0.29
19	Cc1cc(C)c(S(=O)(=O)N2CCCCC2CCNC(=O)C(=O)NCCN2CCOCC2)c(C)c1 (stereo not given)	i	-0.17
20	COC(=O)c1ccc(C(=O)OC)c(NC(=O)COC(=O)c2ccccc2OC)c1	i	-0.13
21	Cc1cc(C)c(S(=O)(=O)Nc2cc(SCC(=O)O)c(O)c3ccccc23)cc1C	i	-1.46
22	COc1ccc(CN(C(=O)CNC(=O)c2ccco2)C(C(=O)NC2CCCC2)c2ccco2)cc1 (stereo not given)	i	-0.22
23	O=C(CSCc1cnn(-c2ccccc2)c1-n1cccc1)N1CCN(Cc2ccccc2)CC1	i	-0.35
24	COc1ccc(C2C(C(=O)c3sc(C)nc3C)=C(O)C(=O)N2CCN2CCOCC2)cc1 (stereo not given)	i	0.13
25	Cc1cccc([C@@H]2[C@@H]3C(=O)N(C)C(=O)[C@@H]3[C@@H]3C(=O)Nc4ccccc4C(=O)N23)c1	i	1.22
26	O=C(c1ccc2c(c1)OCO2)C1CCCN(Cc2ccccc2OC(F)F)C1 (stereo not given)	i	-2.61
27	Cc1ccc(NC2=Nc3ccccc3CC2)cc1	i	0.46
28	C#CCOc1ccc(C2C3=C(COC3=O)Nc3cc4c(cc32)OCO4)cc1OC (stereo not given)	i	-1.92
29	Cc1ccc(-c2cc(C(=O)Nc3ccc(S(=O)(=O)Nc4onc(C)c4C)cc3)[nH]n2)c(O)c1	i	-1.1
30	Cc1cccc2c(N=Nc3ccccc3)c(O)[nH]c12	i	2.44
31	COc1ccc(CC(CN)c2ccccc2)cc1 (stereo not given)	i	0.74
32	Cc1ccc2c(CC(=O)OCn3nnc4ccccc4c3=O)coc2c1	i	0.54
33	Cn1c(=O)c(C(=O)NC2CCCCCCC2)c(O)c2ccccc21	i	1.42
34	CCCc1c(C(=O)N/N=C(\C)CCc2ccc(OC)cc2)nnn1-c1nonc1N	i	0.22
35	O=C(Nc1ccccc1)c1cc(Cl)nc2ccccc12	i	0.6
36	Cc1cccc(C)c1NC(=O)c1cnn(-c2ccccc2)c1C	i	-2.81
37	CCOC(=O)c1c(/N=C/C2=C(O)CC(C)(C)CC2=O)sc2c1CCCC2	i	-0.98
38	C=C(C)Cn1c(SCC(=O)N/N=C/c2c(O)ccc3ccccc23)nc2ccccc2c1=O	i	0.83
39	CN1CCN(S(=O)(=O)c2ccc(Br)c3nsnc23)CC1	i	-0.4
40	CCN(CC)N=Nc1ccc(C(=O)O)cc1	i	2.29
41	O=[N+]([O-])c1ccc(C(O)CN2CCOCC2)cc1 (stereo not given)	i	-0.32
42	COc1ccc(Br)cc1CN(C)CC(=O)NCc1ccc(F)cc1	i	1.71
43	O=C1c2ccccc2C(=O)C1(CO)c1ccccc1	i	-2.02
44	NC(=O)C1CCN(S(=O)(=O)c2cccc(C(=O)O)c2)CC1	i	1.25
45	COc1ccccc1-n1c(C)nc2cc(C(=O)NCC3CCCO3)ccc21 (stereo not given)	i	1.79
46	CS(=O)(=O)N1CCN=C1SCc1cccc(F)c1	i	-0.03
47	CCCC[C@@H]1C[C@H]1[C@@H](NC(=O)c1ccco1)c1ccccc1C(F)(F)F	i	-0.38
48	Cc1ccc(-n2nc3c(c2NC(=O)CC(C)C)CS(=O)C3)cc1 (stereo not given)	i	0.24
49	COC(=O)CC1NCCNC1=O (stereo not given)	i	-0.09
50	O=C(NC1CCS(=O)(=O)C1)c1cn(-c2ccccc2)nc1-c1ccccc1 (stereo not given)	i	-1.57

# Going on with the list.
entry	smiles	KCNQ2 inh	KCNQ2 inh baseline
51	O=C(CN1C(=O)c2cccc3cccc(c23)C1=O)NCCN1CCOCC1	i	0.44
52	O=C(O)CC(c1cccc(O)c1)N1Cc2ccccc2C1=O (stereo not given)	i	-0.4
53	Cc1ccc(S(=O)(=O)N(C)C)cc1NC(=O)C1Cc2ccccc2CN1C(=O)c1ccco1 (stereo not given)	i	1.39
54	CCNC(=O)COC(=O)/C=C/c1c(C)nn(Cc2cccc(OC)c2)c1Cl	i	-1.75
55	Cc1oc(C)c2c(=O)ccc3c(c12)OC(N)=C(C#N)C3c1ccc(F)cc1 (stereo not given)	i	1.63
56	CC(=O)c1ccccc1NS(=O)(=O)c1ccccc1Cl	i	-0.75
57	Cc1ccccc1NC(=O)c1c(C)nn(-c2ccccc2)c1Cl	i	2.07
58	O=c1[nH]c2c(n(C3CCCCC3)c1=O)CCC2	i	-0.69
59	Cc1cccc(NC(=O)C(=O)NCCCc2ccccc2)c1	i	-0.83
60	COc1ccc(OC)c(-c2csc(N(Cc3ccco3)C(=O)c3ccco3)n2)c1	i	-0.81
61	CCCc1n[nH]c2c1C(=O)C(C(=O)OC)C(C)(C)C2 (stereo not given)	i	-0.91
62	Cc1ccc(-c2cc(-c3ccccc3)nc(NN)n2)cc1	i	1.04
63	COC(=O)c1ccc(-n2c(C)cc(C(=O)COC(=O)CNS(=O)(=O)c3ccc(C)cc3)c2C)cc1	i	1.38
64	COc1ccc(C(=O)Oc2coc(CSc3nnc(NC(=O)c4cccs4)s3)cc2=O)cc1	i	0.24
65	COc1ccccc1NC(=O)CSc1nnc(-c2ccco2)n1N	i	-1.48
66	N#CC1=C(S)N(c2ccccc2)C(c2ccc(-c3ccc(Cl)c(Cl)c3)o2)NC1=O (stereo not given)	i	-0.08
67	Cc1cccc(C)c1NC(=O)/C(C#N)=C/c1ccc(-c2ccc(C(=O)O)cc2)o1	i	0.01
68	CCOC(=S)SCC(=O)N1CCc2cc(OC)ccc2C1C1C(=O)CCCC1=O (stereo not given)	i	1.54
69	O=C(CCCN1C(=O)/C(=C\c2cccs2)SC1=S)Nc1cc([N+](=O)[O-])ccc1O	i	-0.14
70	CS(=O)(=O)NN1C(=O)c2ccccc2NC12CCCC2	i	-0.47
71	O=C(CC1C(=O)NCCN1C(=O)Nc1ccccc1)Nc1cccc(Cl)c1 (stereo not given)	i	-0.41
72	CCCCC(=O)Nc1nc2c(OC)ccc(OC)c2s1	i	0.68
73	CNC(=S)NNc1nncc2ccccc12	i	-0.58
74	Cc1noc(C)c1COC(=O)CNC(=O)c1cccc(F)c1	i	-0.2
75	CC(C)(C)CN1CCNC(=O)C1CC(=O)NCCc1cnn(-c2ccccc2)c1 (stereo not given)	i	1.83
76	CC(C)c1ccccc1-n1c(-c2cccnc2)n[nH]c1=S	i	-1.12
77	O=C(NC(=S)Nn1cnc2c(cnn2-c2ccccc2)c1=O)c1ccc(Cl)cc1	i	0.26
78	COCCSc1nnc(NC(=O)c2ccc([N+](=O)[O-])cc2)s1	i	0.1
79	Cc1ccc(C(C(=O)NCc2ccccc2)N(C(=O)c2csnn2)c2cccc3ccccc23)o1 (stereo not given)	i	-2.28
80	C=C(Cl)COc1cc(C)cc2oc(=O)cc(CC)c12	i	0.98

# Compounds above that contain a furan ring, fused or not (11):
entry	smiles	KCNQ2 inh	KCNQ2 inh baseline
15	CCCCN(CC)Cc1ccc(CNC(=S)Nc2ccccc2F)o1	i	2.27
22	COc1ccc(CN(C(=O)CNC(=O)c2ccco2)C(C(=O)NC2CCCC2)c2ccco2)cc1 (stereo not given)	i	-0.22
32	Cc1ccc2c(CC(=O)OCn3nnc4ccccc4c3=O)coc2c1	i	0.54
47	CCCC[C@@H]1C[C@H]1[C@@H](NC(=O)c1ccco1)c1ccccc1C(F)(F)F	i	-0.38
53	Cc1ccc(S(=O)(=O)N(C)C)cc1NC(=O)C1Cc2ccccc2CN1C(=O)c1ccco1 (stereo not given)	i	1.39
55	Cc1oc(C)c2c(=O)ccc3c(c12)OC(N)=C(C#N)C3c1ccc(F)cc1 (stereo not given)	i	1.63
60	COc1ccc(OC)c(-c2csc(N(Cc3ccco3)C(=O)c3ccco3)n2)c1	i	-0.81
65	COc1ccccc1NC(=O)CSc1nnc(-c2ccco2)n1N	i	-1.48
66	N#CC1=C(S)N(c2ccccc2)C(c2ccc(-c3ccc(Cl)c(Cl)c3)o2)NC1=O (stereo not given)	i	-0.08
67	Cc1cccc(C)c1NC(=O)/C(C#N)=C/c1ccc(-c2ccc(C(=O)O)cc2)o1	i	0.01
79	Cc1ccc(C(C(=O)NCc2ccccc2)N(C(=O)c2csnn2)c2cccc3ccccc23)o1 (stereo not given)	i	-2.28

# (continued)
entry	smiles	KCNQ2 inh	KCNQ2 inh baseline
81	Cc1ccc(CSc2nc3ccccc3c(=O)[nH]2)cc1	i	-0.55
82	COc1ccc(CCC(=O)Nc2ccc(S(=O)(=O)Nc3nccc(C)n3)cc2)cc1	i	1.77
83	N/C(=N\OC(=O)COc1ccccc1Cl)c1ccc(Cl)cc1	i	-0.53
84	CC(Sc1nnc(COc2ccc(Cl)cc2)n1Cc1ccccc1)C(=O)O (stereo not given)	i	1.8
85	Cc1cc(NC(=O)CCCN2C(=O)c3cccnc3C2=O)no1	i	1.04
86	O=C1COc2ccc(S(=O)(=O)N3CCN(c4ccccc4)CC3)cc2N1	i	-0.61
87	CCCNC(=O)c1c(CSc2ccc(Cl)cc2)noc1C(=O)NCc1ccccc1	i	-0.48
88	O=C(NC(=S)NC1CCSC1=O)c1ccccc1 (stereo not given)	i	-0.06
89	COc1cccc(/C=C/c2nc(C#N)c(NCC(C)C)o2)c1	i	-0.28
90	COC(CNC(=O)c1ccc2c(c1)ncn2-c1cccc(C)c1)OC	i	-0.59
91	Cc1ccc2c(CC(=O)Nc3c(C)n(C)n(-c4ccccc4)c3=O)coc2c1	i	-0.26
92	CCCCn1c(N)c(N(Cc2ccccc2OC)C(=O)COc2cc(C)ccc2Cl)c(=O)[nH]c1=O	i	0.8
93	Cc1cc(C)cc(NC(=O)CCn2c(=O)c3cccn3c3ccccc32)c1	i	-0.59
94	O=C(CSc1ccccn1)N/N=C/C=C/c1ccccc1	i	0.68
95	CCOC(=O)/C(Sc1nc(-c2ccccc2)cc(-c2ccccc2)c1C#N)=C(\C)O	i	-0.82
96	CCOc1ccc(C(=O)NC(=S)Nc2ccccc2N2CCC(C)CC2)cc1[N+](=O)[O-]	i	1.42
97	O=C(CSCc1ccc(C(=O)O)cc1)Nc1ccccc1	i	0.09
98	CC(=O)c1ccc(OCC(O)CN2C(C)(C)CC(O)CC2(C)C)cc1 (stereo not given)	i	0.03
99	COC(=O)c1cc(NS(=O)(=O)c2ccc(N3CCOCC3)c([N+](=O)[O-])c2)cc(C(=O)OC)c1	i	0.52
100	CC(=O)Nc1cccc(NC=C(C#N)C#N)c1	i	0.06
101	O=C(COc1ccc(Cl)cc1)NCc1nnc(SCC(=O)NC2CCCCC2)o1	i	2.06
102	Cc1nn(-c2ccccc2)c(C)c1NC(=O)COC(=O)c1ccccc1OC(F)F	i	-0.06
103	CS(=O)(=O)c1ccc(Cl)c(NC(=O)COC(=O)c2c(Cl)cccc2Cl)c1	i	-1.62
104	Nc1ccc(S(=O)(=O)NCc2ccccn2)cc1	i	0.2
105	O=C(Oc1ccc(N2C(=O)CCC2=O)cc1)c1ccccc1	i	-0.08
106	CC1c2nc3ccccc3n2C(CC(=O)NCc2ccccn2)C(=O)N1Cc1ccccc1 (stereo not given)	i	-0.81
107	Cc1nn(Cc2ccc(Cl)cc2)c(=O)n1N(C)c1ncc(C(F)(F)F)cc1Cl	i	2.44
108	Cc1cccc(C2c3[nH]c4ccccc4c3CCN2C(=O)c2cc(CC(C)C)nc(C)n2)n1 (stereo not given)	i	0.67
109	COc1ccc2nc(C3CCCCC3)c3c(c2c1)CCC3	i	-0.5
110	C/C(=N\Nc1cc(Cl)nc(C)n1)c1ccc(Cl)c(Cl)c1	i	0.56
111	COC(=O)CCC(=O)NNC(=O)CCC(=O)Nc1cccc(Cl)c1C	i	3.17
112	COc1ccccc1C1SCCN1S(=O)(=O)c1cccc(C(F)(F)F)c1 (stereo not given)	i	-0.26
113	CC12CCC(C(=O)N(NC(=O)c3ccccc3Cl)C1=O)C2(C)C (stereo not given)	i	-1.48
114	O=C(NC1CCCCC1)c1cc(-n2cnnc2)ccc1Cl	i	-1.2
115	Cc1ccc(N(C)S(=O)(=O)c2ccc(C)cc2)cc1	i	-0.25
116	O=C(NCCc1ccccc1)C(=O)c1c[nH]c2ccccc12	i	-0.15
117	Cc1cc(-c2ccccc2)n2ncc(-c3ccccc3)c2n1	i	0.79
118	Cc1ccc(S(=O)(=O)n2cc(-c3ccccc3)c(N)n2)cc1	i	-1.24
119	Cc1ccc(C)c(-c2cc(C(=O)NNC(=S)NCC(C)C)c3ccccc3n2)c1	i	0.95
